Ecoli rRNA inh: inhibitors of bacterial rRNA selective over humanized ribosomes. E. coli WT GFP vs humanized-ribosome RFP mutants, fluorescence, 24 h; hits give low values; DMSO median 0, no signal -100. GFP signal change (wild-type ribosome), % (no concentration beside the values). 350,000 tested, 1.6% active. AID 720706;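 active = significant combined selectivity score with lowered wild-type GFP, culture density cut under 30%, mutant RFP and density less affected; inactive = any of these conditions unmet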; also: one replicate is shown; some compounds called inactive have numbers as strong as hits
Ecoli rRNA inh OD600: further read-out of Ecoli rRNA inh, marked with its call; OD600 change, %; measured here: OD600 growth;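 optical density of the mix in the first replicate; 0 = DMSO median and -100 = no signal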
Ecoli rRNA inh RFP: also measured in Ecoli rRNA inh; calls as there; RFP signal change, %; measured here: RFP humanized mutant strains;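 first replicate; 0 = DMSO median and -100 = no signal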
The depositor's hits bear a star; i = inactive; · = no result given. Only part of the results is shown; rates above refer to the full screens.

C[C@@H]1CN([C@@H](C)CO)C(=O)Cc2cc(NS(=O)(=O)c3ccccc3)ccc2O[C@@H]1CN(C)C(=O)Nc1ccc2c(c1)OCO2
  Ecoli rRNA inh: -3
  Ecoli rRNA inh OD600: -3
  Ecoli rRNA inh RFP: -1.0
COc1ccc(NC(=O)Nc2ccc3c(c2)CC(=O)N([C@@H](C)CO)C[C@H](C)[C@H](CN(C)C(=O)Nc2cccc4ccccc24)O3)cc1
  Ecoli rRNA inh: -1
  Ecoli rRNA inh OD600: -3
  Ecoli rRNA inh RFP: -0.1
CC(C)NC(=O)N(C)C[C@@H]1Oc2ccc(N(C)C)cc2C(=O)N(C)C[C@@H]1C
  Ecoli rRNA inh: -2
  Ecoli rRNA inh OD600: 4
  Ecoli rRNA inh RFP: 2.6
COCC(=O)N(C)C[C@H]1Oc2cc(C#CC3CCCC3)ccc2S(=O)(=O)N([C@@H](C)CO)C[C@@H]1C
  Ecoli rRNA inh: -5
  Ecoli rRNA inh OD600: -15
  Ecoli rRNA inh RFP: -0.3
COc1ccc(S(=O)(=O)N(C)C[C@@H]2Oc3ncc(/C=C/c4ccccc4)cc3C(=O)N([C@H](C)CO)C[C@H]2C)cc1
  Ecoli rRNA inh: -2
  Ecoli rRNA inh OD600: 11
  Ecoli rRNA inh RFP: -2.0
CCc1c(-c2ccc(OC)c(OC)c2)ncn1CCc1ccccc1OC
  Ecoli rRNA inh: -11
  Ecoli rRNA inh OD600: -20
  Ecoli rRNA inh RFP: 1.6
C[C@@H]1CN([C@@H](C)CO)C(=O)c2cc(NC(=O)Nc3ccc4c(c3)OCO4)ccc2O[C@@H]1CN(C)C(=O)Nc1ccccc1
  Ecoli rRNA inh: 0
  Ecoli rRNA inh OD600: -2
  Ecoli rRNA inh RFP: -0.5
C[C@@H]1CN([C@@H](C)CO)C(=O)c2cccc(NC(=O)Nc3ccc4c(c3)OCO4)c2O[C@H]1CN(C)C(=O)Nc1ccc(F)cc1
  Ecoli rRNA inh: -5
  Ecoli rRNA inh OD600: -8
  Ecoli rRNA inh RFP: 0.8
CCC(=O)Nc1ccc2c(c1)OC[C@@H](C)N(CC1CCCCC1)C[C@H](C)[C@@H](OC)CN(C)C2=O
  Ecoli rRNA inh: 1
  Ecoli rRNA inh OD600: -12
  Ecoli rRNA inh RFP: 4.3
COc1ccc(-c2ccc3c(c2)[C@@H]2[C@@H](CCN2C(=O)Cc2ccccc2)[C@H](CO)N3C)cc1
  Ecoli rRNA inh: -11
  Ecoli rRNA inh OD600: -50
  Ecoli rRNA inh RFP: 21

Reprinted from above, 2 compounds:
C[C@@H]1CN([C@@H](C)CO)C(=O)Cc2cc(NS(=O)(=O)c3ccccc3)ccc2O[C@@H]1CN(C)C(=O)Nc1ccc2c(c1)OCO2
  Ecoli rRNA inh: -3
  Ecoli rRNA inh OD600: -3
  Ecoli rRNA inh RFP: -1.0
COc1ccc(NC(=O)Nc2ccc3c(c2)CC(=O)N([C@@H](C)CO)C[C@H](C)[C@H](CN(C)C(=O)Nc2cccc4ccccc24)O3)cc1
  Ecoli rRNA inh: -1
  Ecoli rRNA inh OD600: -3
  Ecoli rRNA inh RFP: -0.1

(list continues)
C[C@@H]1CCCCO[C@H](CN(C)CC2CC2)[C@H](C)CN([C@@H](C)CO)C(=O)c2cc(NC(=O)Nc3cccc4ccccc34)ccc2O1
  Ecoli rRNA inh: -27*
  Ecoli rRNA inh OD600: -19*
  Ecoli rRNA inh RFP: -3.5*
CCCN1C[C@H](C)[C@H](OC)CN(C)C(=O)c2cc(NS(C)(=O)=O)ccc2OC[C@@H]1C
  Ecoli rRNA inh: 0
  Ecoli rRNA inh OD600: 0
  Ecoli rRNA inh RFP: -1.6
C[C@@H]1CN([C@H](C)CO)C(=O)Cc2cc(NC(=O)Nc3cccc4ccccc34)ccc2O[C@@H]1CN(C)S(=O)(=O)c1cccs1
  Ecoli rRNA inh: 1
  Ecoli rRNA inh OD600: 5
  Ecoli rRNA inh RFP: -1.2
CN1c2ccc(C#Cc3cccnc3)cc2[C@H]2[C@H](CCN2C(=O)CN2CCOCC2)[C@@H]1CO
  Ecoli rRNA inh: -3
  Ecoli rRNA inh OD600: 0
  Ecoli rRNA inh RFP: -1.1
Cc1ccc(S(=O)(=O)Nc2ccc3c(c2)C(=O)N([C@H](C)CO)C[C@H](C)[C@@H](CN(C)C(=O)c2ccncc2)OCCCC[C@H](C)O3)cc1
  Ecoli rRNA inh: -3
  Ecoli rRNA inh OD600: 2
  Ecoli rRNA inh RFP: -0.8
CN1C(=O)c2cc(NC(=O)c3cncs3)ccc2OC[C@H]2O[C@@H](CC(=O)NCC3CC3)CC[C@@H]21
  Ecoli rRNA inh: 1
  Ecoli rRNA inh OD600: 0
  Ecoli rRNA inh RFP: 0.1
C[C@H](CO)N1C[C@H](C)[C@H](CN(C)S(=O)(=O)c2cccc(F)c2)OCc2ccccc2-c2ccccc2C1=O
  Ecoli rRNA inh: -4
  Ecoli rRNA inh OD600: -14
  Ecoli rRNA inh RFP: -0.3
CN(C[C@@H]1[C@@H](c2ccccc2)[C@H](CO)N1C(=O)C1CC1)C(=O)c1ccccn1
  Ecoli rRNA inh: 2
  Ecoli rRNA inh OD600: 1
  Ecoli rRNA inh RFP: -1.8
CCCN(C)C[C@@H]1OCCCC[C@H](C)Oc2ccc(NC(=O)C3CCCCC3)cc2C(=O)N([C@H](C)CO)C[C@@H]1C
  Ecoli rRNA inh: 0
  Ecoli rRNA inh OD600: 5
  Ecoli rRNA inh RFP: 2.4
C[C@@H]1CCCCO[C@@H](CN(C)Cc2ccc(C(F)(F)F)cc2)[C@@H](C)CN([C@@H](C)CO)C(=O)c2cc(NC(=O)C3CCCCC3)ccc2O1
  Ecoli rRNA inh: 5
  Ecoli rRNA inh OD600: 10
  Ecoli rRNA inh RFP: 3.0

C[C@H]1CCCCO[C@@H](CN(C)Cc2ccc(C(F)(F)F)cc2)[C@@H](C)CN([C@@H](C)CO)C(=O)c2cc(NS(C)(=O)=O)ccc2O1
  Ecoli rRNA inh: 6
  Ecoli rRNA inh OD600: -12
  Ecoli rRNA inh RFP: 13
COc1ccc(N=C2Sc3ccccc3[C@@H]3C[C@H]4[C@H](CON4C)CN23)c(OC)c1
  Ecoli rRNA inh: -27
  Ecoli rRNA inh OD600: -16
  Ecoli rRNA inh RFP: -4.0
COc1ccc(NC(=O)N(C)C[C@@H]2OCCCC[C@H](C)Oc3ccc(NS(=O)(=O)c4c(C)noc4C)cc3C(=O)N([C@@H](C)CO)C[C@@H]2C)cc1
  Ecoli rRNA inh: -2
  Ecoli rRNA inh OD600: -12
  Ecoli rRNA inh RFP: -0.1
CCNC(=O)C[C@@H]1CC[C@H]2[C@H](COc3ccc(NC(=O)c4ccccc4Cl)cc3C(=O)N2C)O1
  Ecoli rRNA inh: 2
  Ecoli rRNA inh OD600: 2
  Ecoli rRNA inh RFP: 1.4
Cc1ccc(S(=O)(=O)N(C)C[C@H]2OCCCC[C@@H](C)Oc3ccc(NC(=O)C4CCCCC4)cc3C(=O)N([C@@H](C)CO)C[C@H]2C)cc1
  Ecoli rRNA inh: -1
  Ecoli rRNA inh OD600: 4
  Ecoli rRNA inh RFP: 0.7
O=C(NC[C@H]1[C@H](c2ccccc2)[C@H](CO)N1Cc1ccccn1)C1CCCC1
  Ecoli rRNA inh: 0
  Ecoli rRNA inh OD600: -3
  Ecoli rRNA inh RFP: 1.0
CC(C)[C@H]1C(=O)N[C@H](c2ccc3c(c2)OCO3)CC=CC[C@@H](C)Oc2ccccc2C(=O)N1C (mixture of isomers)
  Ecoli rRNA inh: -4
  Ecoli rRNA inh OD600: -3
  Ecoli rRNA inh RFP: -6.0
C[C@H]1CN([C@@H](C)CO)C(=O)c2cc(NS(=O)(=O)c3ccc(F)cc3)ccc2O[C@@H]1CN(C)S(C)(=O)=O
  Ecoli rRNA inh: 0
  Ecoli rRNA inh OD600: -3
  Ecoli rRNA inh RFP: -3.1
O=C(NS(=O)(=O)c1ccccc1[N+](=O)[O-])[C@H]1O[C@@H](n2ccc(=O)[nH]c2=O)[C@H](O)[C@@H]1O
  Ecoli rRNA inh: 17
  Ecoli rRNA inh OD600: 10
  Ecoli rRNA inh RFP: 2.9
CN1c2ccc(-c3ccc(F)cc3)cc2[C@@H]2[C@@H](CCN2C(=O)Nc2ccc(F)cc2)[C@@H]1CO
  Ecoli rRNA inh: -9
  Ecoli rRNA inh OD600: 9
  Ecoli rRNA inh RFP: -1.7

Continued:
Under each structure – Ecoli rRNA inh	Ecoli rRNA inh OD600	Ecoli rRNA inh RFP
> COc1ccc(S(=O)(=O)N(C)C[C@H]2OCCCC[C@@H](C)Oc3ccc(NC(=O)Nc4ccccc4)cc3C(=O)N([C@@H](C)CO)C[C@@H]2C)cc1
 : -1	5	-1.1
> COc1ccc(S(=O)(=O)Nc2cccc3c2O[C@@H](CN(C)S(=O)(=O)c2ccccc2)[C@H](C)CN([C@H](C)CO)C3=O)cc1
 : -4	-3	2.4
> C[C@@H]1CN([C@H](C)CO)C(=O)Cc2cc(NC(=O)Cc3cn(C)c4ccccc34)ccc2O[C@@H]1CN(C)S(=O)(=O)c1ccc(Cl)cc1
 : 1	-4	0.5
> C[C@@H]1CCCCO[C@@H](CN(C)Cc2ccc(C(F)(F)F)cc2)[C@@H](C)CN([C@@H](C)CO)C(=O)c2cc(NC(=O)Nc3ccc(C(F)(F)F)cc3)ccc2O1
 : 3	12	-3.0
> C[C@@H]1CN([C@@H](C)CO)S(=O)(=O)c2ccc(-c3cncnc3)cc2O[C@@H]1CN(C)C(=O)c1cccc(F)c1
 : -3	7	7.1
> CC(C)[C@H]1COCc2cnnn2CCC[C@@H](C)C(=O)N1
 : 5	-2	-2.7
> CCC(=O)N(C)C[C@H]1[C@H](c2ccc(C3=CCCCC3)cc2)[C@@H](CO)N1C(=O)CC
 : 0	-12	-0.1
> CCN1[C@@H]2c3ccc(-c4ccc(OC)cc4)c(=O)n3C[C@@H]2[C@@H](CO)[C@@H]1C(=O)N(C)C
 : -2	3	-0.6
> CCNC(=O)C[C@H]1CC[C@H]2[C@H](COc3ccc(NC(=O)c4cccc(C(F)(F)F)c4)cc3C(=O)N2C)O1
 : 0	-4	2.4
> O=C(NCCc1ccccc1Cl)[C@@H]1CCCN1C(=O)[C@@H](NS(=O)(=O)c1ccc(F)cc1F)C1CCCCC1
 : -14	-25	2.1
> O=S(=O)(c1cccc(F)c1)N1CC[C@@H]2[C@H]1c1cc(C#Cc3cccc(F)c3)ccc1N[C@@H]2CO
 : 2	8	2.0
> C[C@H]1CN([C@@H](C)CO)C(=O)c2cc(-c3ccc(F)cc3)cnc2O[C@H]1CN(C)C(=O)c1ccncc1
 : 3	7	-3.3
> O=C1NC(c2ccc(Br)cc2)c2c(-c3ccccc3)n[nH]c21 (configuration not stated)
 : -38	-75	-14
> C[C@H](NC(=O)C[C@@H]1CC[C@@H]2[C@H](COC[C@H](O)CN2C(=O)Nc2cccc(Cl)c2)O1)c1ccccc1
 : i	·	·

Among those listed so far, these contain nitrogen in an aromatic ring:
Under each structure – Ecoli rRNA inh	Ecoli rRNA inh OD600	Ecoli rRNA inh RFP
> COc1ccc(S(=O)(=O)N(C)C[C@@H]2Oc3ncc(/C=C/c4ccccc4)cc3C(=O)N([C@H](C)CO)C[C@H]2C)cc1
 : -2	11	-2.0
> CCc1c(-c2ccc(OC)c(OC)c2)ncn1CCc1ccccc1OC
 : -11	-20	1.6
> CN1c2ccc(C#Cc3cccnc3)cc2[C@H]2[C@H](CCN2C(=O)CN2CCOCC2)[C@@H]1CO
 : -3	0	-1.1
> Cc1ccc(S(=O)(=O)Nc2ccc3c(c2)C(=O)N([C@H](C)CO)C[C@H](C)[C@@H](CN(C)C(=O)c2ccncc2)OCCCC[C@H](C)O3)cc1
 : -3	2	-0.8
> CN1C(=O)c2cc(NC(=O)c3cncs3)ccc2OC[C@H]2O[C@@H](CC(=O)NCC3CC3)CC[C@@H]21
 : 1	0	0.1
> CN(C[C@@H]1[C@@H](c2ccccc2)[C@H](CO)N1C(=O)C1CC1)C(=O)c1ccccn1
 : 2	1	-1.8
> COc1ccc(NC(=O)N(C)C[C@@H]2OCCCC[C@H](C)Oc3ccc(NS(=O)(=O)c4c(C)noc4C)cc3C(=O)N([C@@H](C)CO)C[C@@H]2C)cc1
 : -2	-12	-0.1
> O=C(NC[C@H]1[C@H](c2ccccc2)[C@H](CO)N1Cc1ccccn1)C1CCCC1
 : 0	-3	1.0
> O=C(NS(=O)(=O)c1ccccc1[N+](=O)[O-])[C@H]1O[C@@H](n2ccc(=O)[nH]c2=O)[C@H](O)[C@@H]1O
 : 17	10	2.9
> C[C@@H]1CN([C@H](C)CO)C(=O)Cc2cc(NC(=O)Cc3cn(C)c4ccccc34)ccc2O[C@@H]1CN(C)S(=O)(=O)c1ccc(Cl)cc1
 : 1	-4	0.5
> C[C@@H]1CN([C@@H](C)CO)S(=O)(=O)c2ccc(-c3cncnc3)cc2O[C@@H]1CN(C)C(=O)c1cccc(F)c1
 : -3	7	7.1
> CC(C)[C@H]1COCc2cnnn2CCC[C@@H](C)C(=O)N1
 : 5	-2	-2.7
> CCN1[C@@H]2c3ccc(-c4ccc(OC)cc4)c(=O)n3C[C@@H]2[C@@H](CO)[C@@H]1C(=O)N(C)C
 : -2	3	-0.6
> C[C@H]1CN([C@@H](C)CO)C(=O)c2cc(-c3ccc(F)cc3)cnc2O[C@H]1CN(C)C(=O)c1ccncc1
 : 3	7	-3.3
> O=C1NC(c2ccc(Br)cc2)c2c(-c3ccccc3)n[nH]c21 (configuration not stated)
 : -38	-75	-14

Compound activity as filed in PubChem BioAssay.
